RGS16-Gao = modulators of RGS16 binding to Galphao, primary screen, biochemical, human proteins, multiplexed bead flow cytometry; binding response (% of control), % at 10 µM; bead-based flow cytometry RGS16-Galphao binding, fluorescence; actives lie on both sides; 0.38% of 220,000 active; Regulator of G-protein signaling 16 (Homo sapiens) + Guanine nucleotide-binding protein …;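 active = below 25% or above 175%, edge rows of some plates excepted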;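 also: Galphao activated by GDP with aluminum fluoride before binding; 100% = wells without compound and 0% = beads without RGS; some results beyond the cut were filed as inactive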
Target sequence (O15492 whole entry, looked up): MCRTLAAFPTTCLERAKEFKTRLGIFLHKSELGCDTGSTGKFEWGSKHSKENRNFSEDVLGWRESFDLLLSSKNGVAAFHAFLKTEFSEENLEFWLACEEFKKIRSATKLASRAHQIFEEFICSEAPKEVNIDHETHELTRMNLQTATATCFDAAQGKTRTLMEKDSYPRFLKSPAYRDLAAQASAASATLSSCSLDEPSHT
Target sequence (P09471 whole entry, looked up): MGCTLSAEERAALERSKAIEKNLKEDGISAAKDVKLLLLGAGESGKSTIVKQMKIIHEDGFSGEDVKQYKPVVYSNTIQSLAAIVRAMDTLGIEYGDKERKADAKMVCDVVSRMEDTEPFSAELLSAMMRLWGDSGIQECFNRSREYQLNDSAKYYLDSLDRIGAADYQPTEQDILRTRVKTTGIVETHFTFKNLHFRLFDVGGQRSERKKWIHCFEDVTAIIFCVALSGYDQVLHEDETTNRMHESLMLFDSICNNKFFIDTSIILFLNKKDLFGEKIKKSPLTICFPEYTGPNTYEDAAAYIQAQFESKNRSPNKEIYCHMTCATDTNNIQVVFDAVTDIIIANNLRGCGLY
INS promoter inh = inhibitors of insulin promoter-driven GFP, primary screen, imaging, TRM-6 cells (human fetal islet line), eGFP reporter, cell count. reporter expression induced with tamoxifen. inhibition, % at 2 µM. 0.9% of 130,000 active;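 active = inhibition above the mean plus 3 SD, with well images judged a real hit on visual review, cut at about 60% in these data, passing the limit was not always enough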
HSV replic up = enhancers of HSV replication in host cells, fold increase, host cell viability; HSV replication augmentation in cells; maximum fold increase; 0.005% of 220,000 active; AID 1956, 2009;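 active = peak rise of 1.5-fold or more in the series; tested in PC3 cells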;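 also: first round at 10 µM; read as green reporter fluorescence; hits show the peak of a series up to 25 µM; 1 = signal of infected wells without compound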
GALR2 ag = GALR2 receptor agonists, primary screen, cell-based. Galanin receptor type 2 (Homo sapiens), O43603. 0.48% of 140,000 active. GALR2-expressing cells, agonist activation read-out. AID 803, 2007. activation, %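 (tested at 5 µM)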;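 active = above mean plus 3 SD of all compounds, about 5% in these data, not always enough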;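 also: 0% = vehicle buffer wells and 100% = reference agonist at full effect; tested in CHO reporter cells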
Target sequence (O43603 whole entry, looked up): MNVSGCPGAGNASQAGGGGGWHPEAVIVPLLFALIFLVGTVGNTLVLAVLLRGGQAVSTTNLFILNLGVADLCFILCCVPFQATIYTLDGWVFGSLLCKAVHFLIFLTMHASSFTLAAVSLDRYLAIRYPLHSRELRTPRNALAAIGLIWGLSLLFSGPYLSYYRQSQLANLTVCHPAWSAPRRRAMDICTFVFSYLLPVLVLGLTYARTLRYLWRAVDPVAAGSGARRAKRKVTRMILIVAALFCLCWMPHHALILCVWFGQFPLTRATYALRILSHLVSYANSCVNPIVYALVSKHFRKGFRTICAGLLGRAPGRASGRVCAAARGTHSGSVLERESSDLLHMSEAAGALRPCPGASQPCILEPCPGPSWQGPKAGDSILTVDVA
PKD1 inh = inhibitors of human PKD1 kinase, biochemical, fluorescence polarization; Serine/threonine-protein kinase D1 (Homo sapiens), Q15139; PKD1 kinase fluorescence polarization assay; 0.056% of 200,000 active; inhibition, %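 (about 10 µM by stock and volumes)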; AID 797, 2007;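 active = inhibition of 50% or more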;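 also: controls were vehicle for no effect and a reference inhibitor for full effect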
INS promoter inh cell count = recorded beside INS promoter inh, whose call it bears; normalized cell count, %; measured here: cell count, toxicity; reference of the scale not given here;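 cells exposed to compound for 48 h; stained nuclei by imaging scaled within each plate; lower means fewer cells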
HSV replic up primary fold = recorded beside HSV replic up, whose call it bears; fold increase; compound at 10 µM; measured here: primary screen fold increase 10 uM; tested in PC3 cells;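 GFP signal in the first replicate; 1 = infected wells without compound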
* = called active by the depositor; i = inactive; nt = no result given.

Value order: RGS16-Gao, INS promoter inh, INS promoter inh cell count, HSV replic up, HSV replic up primary fold, GALR2 ag, PKD1 inh
Oc1ccc(-c2nnc(Nc3cccc(O)c3)c3ccccc23)cc1
 : 100, nt, nt, i, 0.87, nt, nt
CC(C)(C)c1ccc(C(=O)Nc2ccc(C=C(C#N)C#N)cc2)cc1
 : 175, 9, 96, i, 0.79, -2.0, -1
O=C(CN1C(=O)/C(=C/c2cccc(Br)c2)SC1=S)Nc1cccnc1
 : 101, nt, nt, i, 1.1, nt, -5
COC(=O)c1ccc(C(=O)OC)c(NC(=O)COC(=O)C23CC4CC(CC(O)(C4)C2)C3)c1
 : 100, 29, 93, i, 1, -0.4, -3
CC(NC(=O)c1ccc(N)cc1)c1ccccc1 (stereo not given)
 : 102, 58, 87, i, 1, nt, -1
O=C(N/N=C/c1c(Cl)cccc1Cl)c1ccccc1F
 : 99, -36, 62, i, 0.97, -0.1, -9
Cn1cccc1Cc1nnc(SCC(=O)N2CCOCC2)n1CCc1ccccc1
 : 100, nt, nt, i, 1.4, -0.3, -14
COCCCNC(=O)C1CCC(CNS(=O)(=O)c2ccc(C)cc2)CC1 (stereo not given)
 : 96, nt, nt, i, 0.99, nt, -4
Cc1ccc(CNC(=O)C(=O)NCCC2=CCCCC2)cc1
 : 118, -40, 97, i, 0.99, 0.3, -1
Cn1c(N)c(C(=O)COC(=O)c2cc(S(=O)(=O)N3CCCCC3)ccc2Cl)c(=O)n(C)c1=O
 : 95, 8, 91, i, 0.89, -0.7, 0
CCOc1ccc(/C=C2\SC(=S)N(C)C2=O)cc1OC
 : 106, nt, nt, i, 1.1, nt, nt
COC(=O)c1ccc(Nc2cc(C)nc3ncnn23)cc1
 : 104, nt, nt, i, 0.93, -2.5, -1
CCOc1ccc(OCC)c(S(=O)(=O)N2CCCCC2C)c1 (stereo not given)
 : 102, -39, 98, i, 0.75, -1.9, 4
O=C(Oc1ccc2cc(Br)ccc2c1)N1CCCCCC1
 : 108, -13, 117, i, 0.88, 1.3, -9
C[C@H](NS(=O)(=O)c1ccccc1F)C(=O)OCC(=O)N1CCc2ccccc21
 : 96, 36, 84, i, 0.96, -1.0, -2
Cc1ccccc1-c1nnc(-c2ccccc2C)o1
 : 45, 31, 74, i, 0.99, -1.6, -5
CN(C)S(=O)(=O)c1cc(NC(=O)COC(=O)Cc2ccc(Br)cc2)ccc1Cl
 : 12*, 0, 111, i, 0.96, -1.6, 9
CCN(CC)CCCNC(=S)N(Cc1cccs1)Cc1cc2cc3c(cc2[nH]c1=O)OCCO3
 : 105, nt, nt, i, 0.92, nt, 5
CCOC(=O)c1ccc(-n2ccnc2)c(NC(=O)c2cccc(Br)c2)c1
 : 104, nt, nt, i, 0.99, 0.9, -2
CCCCNC(=O)NC1(C(F)(F)F)Oc2ccccc2O1
 : 102, 6, 217, i, 1, -3.2, -1
CCOC(=O)c1c(NC(=O)CSc2cccc[n+]2[O-])sc(C(=O)Nc2ccccc2)c1C
 : 111, 50, 134, i, 0.89, nt, 3
Cc1ccc(-n2ncc(-c3nn[nH]n3)c2N)cc1
 : 91, nt, nt, i, 1.1, nt, nt
Cc1cccc(Cn2c(CN3CCN(Cc4ccccc4)CC3)nc3c2c(=O)[nH]c(=O)n3C)c1
 : 104, nt, nt, i, 0.8, -0.3, -9
COc1cc(NC(=O)C2CCCCC2)c(OC)cc1NC(=O)c1ccco1
 : 101, nt, nt, i, 0.8, -2.0, -2
Cc1cccc2cc(COC(=O)C3CCCCC3)c(=O)[nH]c12
 : 92, nt, nt, i, 0.9, -1.0, -2
COc1ccc(CCNC(=O)C(CC(C)C)NC(N)=O)cc1 (stereo not given)
 : 107, 8, 127, i, 1, nt, -2
COc1cccc(-c2cc(C(=O)Nc3cc(C)nn3-c3ccccc3)no2)c1
 : 100, -4, 122, i, 0.81, 4.8, -6
COc1cccc(C2=CC(c3ccccc3)n3ncnc3N2)c1 (stereo not given)
 : 102, nt, nt, i, 1.1, -0.8, 7
O=C(Cn1[nH]c(=O)c2ccccc2c1=O)Nc1cccc(S(=O)(=O)N2CCCCCC2)c1
 : 105, 0, 88, i, 1.1, nt, 2
Cc1sc2nc(SCC(=O)C(C)(C)C)n(Cc3ccco3)c(=O)c2c1C
 : 99, -11, 110, i, 0.86, 2.3, -5

Continued:
Value order: RGS16-Gao, INS promoter inh, INS promoter inh cell count, HSV replic up, HSV replic up primary fold, GALR2 ag, PKD1 inh
COc1ccc(C(=O)N2CCCN(C)CC2)cc1S(=O)(=O)N1CCCc2ccccc21
 : 103, -32, 124, i, 0.93, -0.5, -2
O=S(=O)(c1ccc(N2CC=C(c3ccccc3)CC2)nc1)N1CCCC1
 : 99, 10, 98, i, 0.89, -0.2, -1
Cc1nc2ccc(Cl)cc2c(-c2ccccc2Cl)c1CC(=O)O
 : 102, 19, 157, i, 0.94, -1.4, 1
O=Nc1ccc(NOC(=O)c2ccccc2)cc1
 : 107, 40, 123, i, 1, 0.0, 7
C/C=C/C(=O)Nc1nnc(C(C)C)s1
 : 103, 11, 101, i, 0.9, -0.8, 0
O=C(O)c1c(F)c(F)c(F)c(F)c1-c1ccc(Cl)cc1
 : 100, nt, nt, i, 0.75, -1.4, 0
O=C(CSC1=NCCS1)Nc1cccc(F)c1
 : 107, nt, nt, i, 0.91, nt, -9
O=C(N/N=C/c1cc([N+](=O)[O-])ccc1O)C1CC1
 : 97, nt, nt, i, 0.97, nt, nt
O=C(OCC(=O)N1CCCc2ccccc21)C1CCN(S(=O)(=O)c2cccs2)CC1
 : 107, nt, nt, i, 0.99, -0.6, -1
CCN(CC)C(=O)Cn1cc(SCC(=O)NCc2ccco2)c2ccccc21
 : 107, -152, 56, i, 1, nt, -6
CCOc1ccc(OCC)c(NC(=O)C2CCN(S(=O)(=O)c3cccnc3)CC2)c1
 : 103, 1, 135, i, 1.1, -3.9, -2
O=C(N/N=C/c1ccccn1)c1cccs1
 : 105, -50, 134, i, 1.1, nt, -7
Cc1ccc(/C=N\NC(=O)c2csnn2)cc1
 : 103, -16, 44, i, 0.85, -2.0, -5
COc1ccc(NS(=O)(=O)c2cccc(C(=O)N/N=C/c3ccccn3)c2)cc1
 : 100, nt, nt, i, 0.95, nt, -1
COc1ccccc1C(=O)NNC(=O)c1ccc(F)cc1
 : 46, -37, 69, i, 1, -0.9, -7
CCC(C(=O)Nc1cc(C)on1)c1ccccc1 (stereo not given)
 : 116, 70*, 49*, i, 1, 0.5, -3
COc1ccc(OC)c(-c2cc(C(=O)Nc3c(C)n(C)n(-c4ccccc4)c3=O)no2)c1
 : 100, nt, nt, i, 0.92, -2.2, -11
CCOC(=O)c1[nH]nc(-c2c(O)cc(C)cc2O)c1-c1csc(C)n1
 : 98, 32, 131, i, 0.81, 0.6, -4
Cc1nn2c(nc1=O)SCC(c1ccccc1)=N2
 : 97, 82*, 99*, i, 1, -0.6, 7
CC[C@@H]1CC=C[C@H]2[C@H]1C(=O)N(Cc1ccccc1)[C@H]2c1ccoc1
 : 94, nt, nt, i, 0.66, nt, nt
O=C(O)/C=C/C(=O)NNC(=O)c1cc(-c2ccccc2)n[nH]1
 : 79, nt, nt, i, 0.88, nt, 3
Cn1c(=O)c2c(ncn2CC(=O)N/N=C/C(Br)=C/c2ccccc2)n(C)c1=O
 : 102, -26, 104, i, 0.84, -0.5, 8
CCN(Cc1cc(=O)[nH]c2ccccc12)C(=O)c1ccc(C)cc1
 : 101, nt, nt, i, 0.95, nt, nt
CC1CCN(S(=O)(=O)c2ccccc2[N+](=O)[O-])CC1
 : 105, -8, 95, nt, nt, -1.5, -8
CC1=C(/C=C/C(=O)O)C(C)(C)CCC1
 : 101, 50, 116, i, 0.86, -1.9, 0
CC1(C)C(=O)OC(c2ccco2)C(C)(C)C1=O (stereo not given)
 : 101, -13, 54, i, 1.1, -2.3, 7
Cn1c(Cn2c(=O)sc3ccccc32)nnc1SCC(=O)NCc1ccc2c(c1)OCO2
 : 102, nt, nt, nt, nt, -1.0, 10
C=CCNC(=S)/N=c1/ccccn1C
 : 107, nt, nt, i, 0.95, nt, nt
CS(=O)(=O)N(Cc1ccc(C(=O)NCCSCc2ccco2)cc1)c1ccccc1
 : 100, -27, 162, i, 0.87, -0.6, -1
O=C(c1cnc(N2CCN(c3ncccn3)CC2)c2ccccc12)N1CCN(c2ccccn2)CC1
 : 104, nt, nt, i, 0.8, -0.3, 2

Retrieved by structure from the list above (4):
Value order: RGS16-Gao, INS promoter inh, INS promoter inh cell count, HSV replic up, HSV replic up primary fold, GALR2 ag, PKD1 inh
CCC(C(=O)Nc1cc(C)on1)c1ccccc1 (stereo not given)
 : 116, 70*, 49*, i, 1, 0.5, -3
CC[C@@H]1CC=C[C@H]2[C@H]1C(=O)N(Cc1ccccc1)[C@H]2c1ccoc1
 : 94, nt, nt, i, 0.66, nt, nt
O=C(c1cnc(N2CCN(c3ncccn3)CC2)c2ccccc12)N1CCN(c2ccccn2)CC1
 : 104, nt, nt, i, 0.8, -0.3, 2
CCN(CC)C(=O)Cn1cc(SCC(=O)NCc2ccco2)c2ccccc21
 : 107, -152, 56, i, 1, nt, -6

Marked active in RGS16-Gao, among the entries above:
Compound	RGS16-Gao	HSV replic up primary fold	GALR2 ag	PKD1 inh
CN(C)S(=O)(=O)c1cc(NC(=O)COC(=O)Cc2ccc(Br)cc2)ccc1Cl	12*	0.96	-1.6	9

(next part)
Value order: RGS16-Gao, INS promoter inh, INS promoter inh cell count, HSV replic up, HSV replic up primary fold, GALR2 ag, PKD1 inh
c1ccc(C2COC(c3cccs3)=N2)cc1 (stereo not given)
 : 100, nt, nt, i, 0.73, -0.6, 7
O=C(NCc1ccco1)c1ccccc1Nc1ccc(F)cc1
 : 92, 19, 97, i, 0.91, -2.1, -5
COc1ccc(OCC(=O)N2c3ccccc3CCc3ccccc32)cc1
 : 102, -7, 96, i, 0.85, -1.1, -9
Cc1ccc(S(=O)(=O)N(C)C)cc1NC(=S)Nc1ccc2cn[nH]c2c1
 : 101, nt, nt, i, 0.87, nt, 23
CN(C)c1ccc(/C=c2\sc3n(c2=O)CCCN=3)cc1
 : 95, nt, nt, i, 1.1, 0.9, -9
CCOc1ccc(NC(=O)CSc2nnc(CCNC(=O)c3ccc(OC)cc3)n2C)cc1
 : 108, -60, 53, i, 0.88, -2.5, -9
CC(C)(C)CC(=O)NC(=S)NCCc1ccccc1
 : 105, 7, 114, i, 0.98, -1.2, 0
Cc1ccc(N2C(=O)C(CN3CCCCC3)C2c2ccccc2)cc1 (stereo not given)
 : 105, i, 150, i, 0.76, nt, 0
Cc1c(C=O)c2ccccn2c1C(=O)c1ccncc1
 : 98, 27, 26, i, 1.1, -1.6, -3
COc1ccc(CN2CCCCC2C)cc1OC (stereo not given)
 : 102, -20, 133, i, 0.91, -0.9, -1
c1ccc(N=Nc2cn[nH]c2-c2ccco2)cc1
 : 98, nt, nt, i, 0.87, nt, 8
Cc1cc(NC(=S)Nc2cccnc2)ccc1Br
 : 102, 0, 156, i, 0.83, nt, 0
COc1ccc(Cl)cc1NC(=S)NCc1ccco1
 : 94, -28, 228, i, 0.8, -1.9, -4
O=C(N[C@@H](Cc1ccccc1)C(=O)OCC(=O)N1CCOCC1)c1cccs1
 : 101, nt, nt, i, 0.85, nt, 17
Cc1nc2scc(-c3cccs3)c2c(=O)n1CC(=O)O
 : 101, nt, nt, i, 0.91, -1.7, -6
CC(=O)Nc1c(OC(C)=O)ccc2c(C)cc(=O)oc12
 : 98, nt, nt, i, 1, 0.3, -10
COc1cc(C(=O)Nc2nnc(C(C)(C)C)s2)c([N+](=O)[O-])cc1OC
 : 91, -7, 132, i, 1, -0.8, 12
CCCc1cc(-c2n[nH]c(C)c2-c2ccc(C(=O)OCC)o2)c(O)cc1O
 : 68, 48, 98, i, 1.1, 0.7, -8
CN(C)Cc1c(C#N)c2ccccc2n1C
 : 103, 8, 159, i, 1, -0.5, -7
CC(C)(C)NC(=O)CN(Cc1cccs1)C(=O)C1COc2ccccc2O1 (stereo not given)
 : 95, -27, 160, i, 0.99, -1.9, 2
Cn1c(=O)c2c(nc(CN3CCN(C(=O)c4ccco4)CC3)n2Cc2cccc(Cl)c2)n(C)c1=O
 : 100, nt, nt, i, 0.96, -1.3, -13

Quoted from the listing.
COc1ccc(OCC(=O)N2c3ccccc3CCc3ccccc32)cc1 in PKD1 inh is entered as -9
Cn1c(=O)c2c(nc(CN3CCN(C(=O)c4ccco4)CC3)n2Cc2cccc(Cl)c2)n(C)c1=O in RGS16-Gao is entered as 100

Screening results from PubChem.
